VACV mCherry inh = qHTS for Stage-Specific Inhibitors of Vaccinia Orthopoxvirus: mCherry Reporter Primary qHTS. Vaccinia virus mCherry reporter infection, fluorescence; about a quarter of the inactives have no number. Potency, µM (titrated, usually from 36.5 µM), for the others: at the highest dose activity change, negative = inhibition, most hits filed as inhibitors. hit rate 0.63% among 310,000; active = well fitted inhibition curve with a large enough effect; inconclusive = small, poorly fitted or top-dose-only effect; inactive = no such curve, though single readings can be large or run the other way; tested in A549 cells; note: nearly all actives have a fitted effect of over 35% in size; inactives centre near -10
VACV Venus inh = qHTS for Stage-Specific Inhibitors of Vaccinia Orthopoxvirus: Venus Reporter Primary qHTS. Vaccinia virus Venus reporter expression, fluorescence. Potency, µM (top dose mostly 36.5 µM), for the others: at the top dose activity change, negative = inhibition, actives largely listed as inhibitors. hit rate 0.46% among 330,000. AID 720580, 2013; active means well fitted inhibition curve with a large enough effect; inconclusive means small, poorly fitted or top-dose-only effect; inactive means no such curve, though single readings can be large or run the other way; tested in A549 cells; note: nearly all actives have a fitted effect of over 30% in size; inactives centre near -10
An asterisk follows results filed as active; [ ] = dose if it differs, or a comment. % is set by controls: 0 for no effect and ±100 for the full control effect; potency is the fitted concentration of half-maximal effect.

`CC1Sc2ccc(S(=O)(=O)N3CCC(C(=O)N(C)Cc4ccccc4)CC3)cc2NC1=O` (centres undefined) gave VACV mCherry inh -12% and VACV Venus inh -9%.
CC(=O)c1c(C)[nH]c(C(=O)Nc2cccc(S(=O)(=O)N(C)c3ccccc3)c2)c1C was read as VACV mCherry inh -11% and VACV Venus inh -17%.
For CC(C)C(=O)NC(Nc1ccc(S(N)(=O)=O)cc1)C(Cl)(Cl)Cl (centres undefined) the results were VACV mCherry inh -8% and VACV Venus inh -3%.
Screening NC(=O)c1nsc(C(=O)N(c2ccc(F)cc2)C(C(=O)NC2CCCC2)c2ccncc2)c1N (centres undefined) returned VACV mCherry inh -25% and VACV Venus inh -13%.
For CSc1ncc(C(=O)Nc2ccccc2Cl)c(C)n1 the results were VACV mCherry inh -11% and VACV Venus inh -2%.
Cc1ccccc1N=C1SCC(=O)N1Cc1ccccc1 was read as VACV mCherry inh -2% and VACV Venus inh 17%.
For C=C(C)C1CC=C(C)/C(=N/NC(=O)c2ccc(NC(=O)c3cccc(C)c3)cc2)C1 (centres undefined) the results were VACV mCherry inh -16% and VACV Venus inh -1%.
For O=C(c1ccccc1)N1CCN(C(=O)c2nn3c(C(F)(F)F)cc(-c4ccccc4)nc3c2Br)CC1 the results were VACV mCherry inh -16% and VACV Venus inh -8%.
CCOC(=O)N1CCN(C(=O)c2ccc(CS(=O)(=O)c3c(Cl)cccc3Cl)o2)CC1 was read as VACV mCherry inh 15% and VACV Venus inh -12%.
Screening O=C(/C=C/c1cn(CC(O)CN2CCCCC2)c2ccccc12)c1cccs1 (centres undefined) returned VACV mCherry inh inconclusive and VACV Venus inh inconclusive.
CSC(N)=NCCCC(N)C(=O)O (centres undefined) was read as VACV mCherry inh -18% and VACV Venus inh -26%.
`CC(/C=C1\SC(=S)N(NC(=O)c2cccc(O)c2)C1=O)=C\c1ccccc1` gave VACV mCherry inh -10% and VACV Venus inh 9%.
For O=C(Nc1ccc(Cl)cn1)c1cccc(F)c1 the results were VACV mCherry inh inconclusive and VACV Venus inh inconclusive.
COc1ccc(C(=O)N2CCC(C(=O)Nc3ccc(Cl)cc3)CC2)cc1 was read as VACV mCherry inh -12% and VACV Venus inh -9%.
For O=C(CCCN1C(=O)S/C(=C\C=C\c2ccccc2)C1=O)Nc1ccc(O)cc1 the results were VACV mCherry inh inconclusive and VACV Venus inh -17%.

The final three entries of the part before open the next one:
For O=C(Nc1ccc(Cl)cn1)c1cccc(F)c1 the results were VACV mCherry inh inconclusive and VACV Venus inh inconclusive.
COc1ccc(C(=O)N2CCC(C(=O)Nc3ccc(Cl)cc3)CC2)cc1 was read as VACV mCherry inh -12% and VACV Venus inh -9%.
For O=C(CCCN1C(=O)S/C(=C\C=C\c2ccccc2)C1=O)Nc1ccc(O)cc1 the results were VACV mCherry inh inconclusive and VACV Venus inh -17%.
CCc1nnc(NC(=O)Cn2c(=O)oc3ccccc32)s1 was read as VACV Venus inh -9%.
COc1ccccc1CCNC(=O)C(=O)NCC1OCCN1S(=O)(=O)c1ccc(C)cc1 (centres undefined) was read as VACV mCherry inh -27% and VACV Venus inh -30%.
Screening COc1ccc(S(=O)(=O)N2Cc3ccccc3CC2C(=O)Nc2cc(Cl)ccc2Cl)cc1 (centres undefined) returned VACV mCherry inh -12% and VACV Venus inh -4%.
For Cc1ccc(C)c(NC(=O)CN2C(=O)c3ccccc3C2=O)c1 the results were VACV mCherry inh -1% and VACV Venus inh 1%.
S=C(NCc1ccc(Cl)cc1)NC12CC3CC(CC(C3)C1)C2 was read as VACV mCherry inh -11% and VACV Venus inh inconclusive.
Screening Cc1ccc(C)c(NC(=O)COC(=O)CC2c3ccccc3CCN2S(=O)(=O)c2ccc(F)cc2)c1 (centres undefined) returned VACV mCherry inh -7% and VACV Venus inh -6%.
Screening Nc1ccc(-n2nnnc2CN2CCOCC2)cc1 returned VACV mCherry inh -12% and VACV Venus inh 5%.
Screening CC(=O)N(C)c1cc([N+](=O)[O-])ccc1OCc1ccccc1 returned VACV mCherry inh inactive and VACV Venus inh -14%.
O=S(=O)(c1ccccc1)N(Cc1ccc(Cl)cc1)c1ccncc1 was read as VACV mCherry inh -11% and VACV Venus inh -6%.
Screening Cc1ccc(N2C(=O)[C@@H]3CSC(c4ccc(Cl)cc4)N3C2=O)cc1 (some centres undefined) returned VACV mCherry inh 3% and VACV Venus inh -4%.
For Cn1c(=O)c(=O)n(C)c2cc(S(=O)(=O)N3CCN(C4CCCCC4)CC3)ccc21 the results were VACV mCherry inh -27% and VACV Venus inh -12%.
For CCc1ccc2nc(N3CCN(C(=O)c4ccco4)CC3)sc2c1 the results were VACV mCherry inh -11% and VACV Venus inh -17%.
CC(C)(C)NC(=O)CSc1nnc(-c2ccncc2)n1Cc1ccccc1 was read as VACV mCherry inh -15% and VACV Venus inh -8%.
Screening O=C(CCc1nc2ccccc2c(=O)[nH]1)N1CCCc2ccccc21 returned VACV mCherry inh -30% and VACV Venus inh 4%.
For CCCCn1c(N)c(S(=O)(=O)c2ccc(C)cc2)c2nc3ccccc3nc21 the results were VACV mCherry inh -15% and VACV Venus inh -29%.
`N#C/C(=C\c1ccc[nH]1)C(=O)NCC1CCCO1` (centres undefined) gave VACV mCherry inh -26% and VACV Venus inh -16%.
Screening C=CCn1c(NCc2ccc(OC)cc2)nc2ccccc21 returned VACV mCherry inh inactive and VACV Venus inh -2%.
For Fc1ccc(Nc2c(-c3c[nH]c4ccccc34)nc3ccccn23)cc1 the results were VACV mCherry inh -11% and VACV Venus inh -15%.
Screening CCN(CC)C(=O)/C=C/c1ccc(OC)c(S(=O)(=O)N2CCCCC2)c1 returned VACV mCherry inh inactive and VACV Venus inh -1%.
COc1ccc(Nc2cc(C(=O)NCCCN3CCN(c4ccccc4F)CC3)c3ccccc3n2)c(OC)c1 was read as VACV mCherry inh -24% and VACV Venus inh -15%.
CCOc1ccc(CNc2cccc(SC)c2)cc1 was read as VACV mCherry inh -19% and VACV Venus inh -5%.
`CCOC(=O)c1c[nH]c2c(C(F)(F)F)cccc2c1=O` gave VACV mCherry inh -6% and VACV Venus inh -11%.
For O=C(CN(C(=O)c1ccccc1)C(=O)c1ccccc1)OCc1ccccc1 the results were VACV mCherry inh -21% and VACV Venus inh -6%.
CC1=CCC2COC(c3ccc[n+](Cc4ccccc4)c3)C1C2 (centres undefined) was read as VACV mCherry inh inactive and VACV Venus inh -7%.
For Cc1cccc(-n2c(=O)[nH]c3c(C(N)=O)nc(-c4ccccc4Cl)nc32)c1 the results were VACV mCherry inh 13% and VACV Venus inh -28%.
CC(C)(C)OC(=O)NN=C(c1ccc(O)cc1)c1ccc(O)cc1 was read as VACV mCherry inh -4% and VACV Venus inh 10%.
Screening COc1cccc(-n2ccnc2SCC(=O)Nc2cc(C)on2)c1 returned VACV mCherry inh -17% and VACV Venus inh -3%.
For Cc1ccc2c(c1)C(=O)N1c3cc(C)c(C)cc3NC(=O)C1C(=O)N2 (centres undefined) the results were VACV mCherry inh 11% and VACV Venus inh 4%.
`CCOC(=O)Cn1nnc2c(sc3nc4c(c(-c5ccccc5)c32)CCC4)c1=O` gave VACV mCherry inh -8%[1.46 µM] and VACV Venus inh inconclusive.
Cc1ccc(Cn2c(=O)n(CC3CCC(C(=O)N4CCOCC4)CC3)c(=O)c3sccc32)cc1 (centres undefined) was read as VACV mCherry inh -15% and VACV Venus inh -14%.
`Cc1ccc(Cl)cc1NC(=O)CCS(=O)(=O)c1cccc2nonc12` gave VACV mCherry inh inactive and VACV Venus inh -10%.
Screening O=S(=O)(NC1CCCCC1N1CCN(c2ccccc2F)CC1)c1ccc(Cl)cc1 (centres undefined) returned VACV mCherry inh -26% and VACV Venus inh -17%.
`COc1ccc(S(=O)(=O)N2CCOC23CCN(S(=O)(=O)c2ccc(C)cc2)CC3)cc1` gave VACV mCherry inh -4% and VACV Venus inh -3%.
Screening CC(C)CNC(=O)c1cc([N+](=O)[O-])ccc1N1CCOCC1 returned VACV mCherry inh -8% and VACV Venus inh -5%.
Screening CCc1ccc(-n2c(SCc3cc(=O)n4cc(Br)ccc4n3)nc3[nH]ncc3c2=O)cc1 returned VACV mCherry inh inconclusive and VACV Venus inh inconclusive.
For CC(C)(C)NC(=O)C(=O)NNC(=O)c1ccc(C(C)(C)C)cc1 the results were VACV mCherry inh -2% and VACV Venus inh -17%.
For CCCC1=NN(c2ccc([N+](=O)[O-])cc2)C(=O)/C1=C\N(C)C the results were VACV mCherry inh -6% and VACV Venus inh -29%.
Screening CCCn1c(=O)c2c(C(F)(F)F)cc(-c3cccs3)nc2n(CCC)c1=O returned VACV mCherry inh -22% and VACV Venus inh -6%.
Screening CC(C)(C)c1nc[nH]c(=O)c1Br returned VACV mCherry inh -8% and VACV Venus inh -1%.
Cn1cc(-c2cc3n(n2)CCC(=O)N3CCCC(=O)Nc2ccc(F)cc2F)c2ccccc21 was read as VACV mCherry inh -17% and VACV Venus inh -16%.
For Cc1ccccc1NC(=O)N(O)C1(C#N)CCCCC1 the results were VACV mCherry inh inactive and VACV Venus inh -7%.
Screening Cc1ccc(OCCn2cc(Br)c(=O)[nH]c2=O)cc1 returned VACV mCherry inh -18% and VACV Venus inh -13%.
For O=C(Nc1ccc(-c2nc3cc(NC(=O)c4ccccc4Cl)ccc3o2)cc1)c1ccccc1Cl the results were VACV mCherry inh -13% and VACV Venus inh inconclusive.
For CCC(CC)C1=NN2C(=N)/C(=C/c3ccc(OC(=O)c4ccco4)cc3)C(=O)N=C2S1 the results were VACV mCherry inh 5%[7.34 µM] and VACV Venus inh 0%[7.34 µM].
Screening Cc1cccc(NC(=O)Cc2ccc(F)cc2)c1 returned VACV Venus inh -9%.

Arranged by molecular weight (lowest first): three of the compounds above
Screening C=CCn1c(NCc2ccc(OC)cc2)nc2ccccc21 returned VACV mCherry inh inactive and VACV Venus inh -2%.
For CSc1ncc(C(=O)Nc2ccccc2Cl)c(C)n1 the results were VACV mCherry inh -11% and VACV Venus inh -2%.
CC(C)(C)OC(=O)NN=C(c1ccc(O)cc1)c1ccc(O)cc1 was read as VACV mCherry inh -4% and VACV Venus inh 10%.

Continued:
`O=C(CSc1nnc(CNC(=O)c2c(F)cccc2Cl)o1)NCc1ccccc1` gave VACV mCherry inh -9% and VACV Venus inh -16%.
O=C(c1ccccc1)N(C(=O)c1ccccc1)N1CCCC1 was read as VACV mCherry inh -20% and VACV Venus inh 8%.
Screening CCOc1ccc(-c2ncncc2-c2ccccc2OC)c(O)c1 returned VACV mCherry inh -13% and VACV Venus inh -13%.
`Cc1c(Cl)cccc1-c1ccc(C(=O)Nc2ccc3oc(-c4cccnc4)nc3c2)o1` gave VACV mCherry inh -15%[7.34 µM] and VACV Venus inh -11%[7.34 µM].
Screening O=C(CN1C(=O)COc2ccccc21)NCCN1CCOCC1 returned VACV mCherry inh 18% and VACV Venus inh 2%.
Screening Cn1c(Cc2ccccc2)nnc1SCc1nc2ccccc2c(=O)[nH]1 returned VACV mCherry inh -3% and VACV Venus inh -10%.
Screening N#CC(c1ccc(Cl)cc1)N1CCOCC1 (centres undefined) returned VACV mCherry inh -17% and VACV Venus inh -21%.
Screening CCOc1ncccc1C(=O)Nc1ccccc1N1CCOCC1 returned VACV mCherry inh -21% and VACV Venus inh -13%.
Screening O=S(=O)(Nc1cccc(-n2cnnn2)c1)c1ccc(F)cc1 returned VACV mCherry inh -19% and VACV Venus inh -11%.
Screening O=C(CC12CC3CC(CC(C3)C1)C2)N1CCN(S(=O)(=O)c2cccs2)CC1 returned VACV mCherry inh -18% and VACV Venus inh -11%.
O=C1Nc2ccccc2Nc2ccc([N+](=O)[O-])cc21 was read as VACV mCherry inh -15% and VACV Venus inh -8%.
For CCOC(=O)C1=CCN(S(=O)(=O)c2ccccc2F)C1c1cccc(Br)c1 (centres undefined) the results were VACV mCherry inh 2% and VACV Venus inh -2%.
Screening Cc1c(Cl)cccc1NC(=S)NCCCN(C)C returned VACV mCherry inh inactive and VACV Venus inh -8%.
O=C1C2C3c4ccccc4C(Br)(c4ccccc43)C2C(=O)N1c1ccccc1O (centres undefined) was read as VACV mCherry inh inactive and VACV Venus inh -4%.
Screening CCCCNC(=O)Nc1cc(C(=O)OC)ccc1Cl returned VACV mCherry inh -17% and VACV Venus inh -5%.
Screening Cc1ccc(OCC(=O)N/N=C\c2c(C)[nH]n(-c3ccccc3)c2=O)c([N+](=O)[O-])c1 returned VACV mCherry inh inactive and VACV Venus inh -18%.

For reference, some entries already given:
Screening Cn1c(Cc2ccccc2)nnc1SCc1nc2ccccc2c(=O)[nH]1 returned VACV mCherry inh -3% and VACV Venus inh -10%.
Screening N#CC(c1ccc(Cl)cc1)N1CCOCC1 (centres undefined) returned VACV mCherry inh -17% and VACV Venus inh -21%.

Source: PubChem (National Center for Advancing Translational Sciences (NCATS))

An unsorted share of the library. About 0.88% of those tested had a hit in this group.
